# Assay outcomes: PubChem, National Center for Advancing Translational Sciences (NCATS)
# 2A Renilla = FMDV 2A StopGo reporter, Renilla signal; HEK cells with a luciferase reporter of 2A StopGo recoding; Potency, µM (highest dose often 57.5 µM), inactives show top-dose signal change, negative = less light; 0.32% of 120,000 active; active means well fitted falling curve with a large enough effect; inconclusive means small, poorly fitted or top-dose-only effect; inactive means no such curve, though single readings can be large or run the other way; note: nearly all actives have a fitted effect of over 55% in size; overnight with compound
# StopGo FLuc = FMDV 2A StopGo reporter, firefly signal; AID 1745856; HEK cells with a luciferase reporter of 2A StopGo recoding; 0.23% of 120,000 active; Potency, µM (highest dose often 57.5 µM), inactives show at the highest dose signal change, negative = less light; active = well fitted falling curve with a large enough effect; inconclusive = small, poorly fitted or top-dose-only effect; inactive = no such curve, though single readings can be large or run the other way; note: nearly all actives have a fitted effect of over 60% in size; overnight with compound
# * = called active by the depositor; u = inconclusive; & = joins results of further samples; [ ] = another dose, or the depositor's remark. % is set by controls: 0 for no effect and ±100 for the full control effect; potency is the fitted concentration of half-maximal effect. Not all compounds are listed, so the mix of outcomes need not match the whole.
# Sample of the layout:
SMILES,2A Renilla,StopGo FLuc
CCOc1ccc(-c2cc(=O)c3ccc(NC(=O)c4ccccc4Cl)cc3o2)cc1,4%,10%
O=C(Nc1nnc(S(=O)(=O)Nc2ccccc2)s1)c1ccccc1Cl,1%,-1%
COc1ccccc1NC(=O)C1CCCN(S(C)(=O)=O)C1 (stereo not given),-6%,-6%
N#Cc1ccc(S(=O)(=O)N2CCN(c3nc(-c4cccs4)nc4ccccc34)CC2)cc1,-6%,18%
Cc1cc2oc(C(=O)Nc3ccc4c(c3)N(C)C(=O)CO4)c(C)c2cc1C,-1%,-2%
COc1ccc(OCc2nc(C#N)c(NCc3ccco3)o2)cc1,8%,0%
N#Cc1nc(COc2ccccc2)oc1NCCc1ccccc1,4%,33%[activator]
Cc1ccc(CNS(=O)(=O)c2ccc3c(c2)N(C)CCO3)cc1,u,-13%
CCOC(=O)CSc1nc2c(c(=O)[nH]c(=O)n2C)n1C(C)C,-11%,-11%
CCC(CNc1ccc2nnnn2n1)N1CCCC1 (stereo not given),-5%,10%
CC1=C(C(=O)Nc2ccccc2)C(c2ccc(Br)cc2)NC(=S)N1 (stereo not given),-2%,-10%
CC(=O)Nc1cccc(NC(=O)Cc2nn(C)c(=O)c3ccccc23)c1,u,u
O=C(CSc1nc(O)c(C/C=C/c2ccccc2)c(=O)[nH]1)Nc1cccc(F)c1,-10%,11%
CCN1CCN(Cc2nc3cc(NC(=O)c4cccc([N+](=O)[O-])c4)ccc3n2CC)CC1,-13%,12%

# The listing, from the first entry:
SMILES,2A Renilla,StopGo FLuc
CCOc1ccc(-c2cc(=O)c3ccc(NC(=O)c4ccccc4Cl)cc3o2)cc1,4%,10%
O=C(Nc1nnc(S(=O)(=O)Nc2ccccc2)s1)c1ccccc1Cl,1%,-1%
COc1ccccc1NC(=O)C1CCCN(S(C)(=O)=O)C1 (stereo not given),-6%,-6%
N#Cc1ccc(S(=O)(=O)N2CCN(c3nc(-c4cccs4)nc4ccccc34)CC2)cc1,-6%,18%
Cc1cc2oc(C(=O)Nc3ccc4c(c3)N(C)C(=O)CO4)c(C)c2cc1C,-1%,-2%
COc1ccc(OCc2nc(C#N)c(NCc3ccco3)o2)cc1,8%,0%
N#Cc1nc(COc2ccccc2)oc1NCCc1ccccc1,4%,33%[activator]
Cc1ccc(CNS(=O)(=O)c2ccc3c(c2)N(C)CCO3)cc1,u,-13%
CCOC(=O)CSc1nc2c(c(=O)[nH]c(=O)n2C)n1C(C)C,-11%,-11%
CCC(CNc1ccc2nnnn2n1)N1CCCC1 (stereo not given),-5%,10%
CC1=C(C(=O)Nc2ccccc2)C(c2ccc(Br)cc2)NC(=S)N1 (stereo not given),-2%,-10%
CC(=O)Nc1cccc(NC(=O)Cc2nn(C)c(=O)c3ccccc23)c1,u,u
O=C(CSc1nc(O)c(C/C=C/c2ccccc2)c(=O)[nH]1)Nc1cccc(F)c1,-10%,11%
CCN1CCN(Cc2nc3cc(NC(=O)c4cccc([N+](=O)[O-])c4)ccc3n2CC)CC1,-13%,12%
Cc1cc(Br)ccc1SCC(=O)O,2%,20%
CC(=O)NC1=NN(C(C)=O)C(c2ccccc2OCc2ccccc2)S1 (stereo not given),55%[activator],-2%
CCCCNc1c(NC(C)=O)c(=O)oc2ccccc12,-2%,5%
CCCn1c(C)cc(C(=O)Cn2nc(C)c(C)c(C#N)c2=O)c1C,-9%,-2%
Cn1c(=O)c2sccc2n2c(CCC(=O)N3CCN(c4cccc(Cl)c4)CC3)nnc12,-16%,-7%
O=C(c1ccc(Br)cc1)N1CCN(CCc2ccncc2)CC1,-23%,12%
CCOC(=O)c1cc2c(=O)n3ccccc3nc2n(CC2CCCO2)c1=NC(=O)c1cccc(C)c1 (stereo not given),114%[activator],-8%
CCOC(=O)c1ccc2ncc(C(=O)OCC)c(NCCCOC(C)=O)c2c1,13%,-1%
O=C(O)c1ccc(/C=N/NC(=O)C2CC2)cc1,5%,2%
Cc1ccc2nc(CSc3nc(C)nc4ccccc34)cn2c1,-9%,37%[activator]
COc1ccc(/C=C(\C#N)c2nc3ccccc3[nH]2)cc1OC,156%[activator],368%[activator]
COc1cc2oc(=O)c(CC(=O)NC3CCS(=O)(=O)C3)c(C)c2cc1Cl (stereo not given),-8%,3%
CCCc1nnc2sc(-c3ccc(OC)cc3)nn12,-11%,5%
COc1ccc(CNC(=O)c2ccc(NC(=O)N3CCSc4nc(C)cc(C)c43)cc2)c(OC)c1,-8%,0%
Cc1ccccc1CS(=O)(=O)Cc1ccc(C(=O)NCCc2ccccc2)o1,-2%,-1%
COc1ccc(N2CCN(c3ccc(-c4nc(-c5ccccc5C)no4)cc3[N+](=O)[O-])CC2)cc1,-7%,0%
CSCCC(=O)NCCc1ccsc1,-6%,10%
Cc1ccc(C)c(NC(=O)CSc2nncn3c2cc2sccc23)c1,-9%,-12%
Cc1ccc2c(C(=O)O)cc(C)nc2c1,-4%,13%
COc1ccc(C(=O)Oc2ccc(NC(=O)Cc3nn(C)c(=O)c4ccccc34)cc2)cc1,-5%,-1%
CCCCCn1c(SCc2ccccc2Cl)nc2c1c(=O)[nH]c(=O)n2C,16%,0%
CCC(CC)NC(=O)Nc1cc(Cl)ccc1C,41%[activator],4%
CCN(CC)C(=O)Cn1nnnc1-c1ccc(Br)cc1,0%,36%[activator]
CC(=O)N(Cc1cccnc1)c1nc2cc(C)cc(C)c2s1,7%,33%
O=C(COC(=O)c1n[nH]c(=O)c2ccccc12)NC(=O)Cc1ccccc1,-10%,4%
COc1ccc(-n2c(/C=C/c3ccccc3F)nc3cc(OC)c(OC)cc3c2=O)cc1Cl,13%,-3%
CCc1ccc(/C=C2\CCc3ccccc3C2=O)cc1,15%,38%[activator]
Cc1ccc(S(=O)(=O)N(C)Cc2c(C)nn(-c3ccccc3)c2C)cc1,18%,-1%
O=C(Cc1cccs1)N(Cc1ccncc1)C1CC1,8%[1.06 µM],4%
Cc1ccc(C(=O)OCC(=O)c2c[nH]c3ccccc23)s1,8%,135%[activator]
CCn1c(=O)cc(OCC(=O)N2CCN(c3cccc(Cl)c3)CC2)c2ccccc21,-8%,-5%
Cc1cccc(Cn2cc(C(=O)c3ccccc3)c(=O)c3cc4c(cc32)OCO4)c1,2%,2%
C=CCn1c(COc2ccc(C(C)(C)C)cc2)n[nH]c1=S,-1%,56%[activator]
Cc1ccc(NN)c([N+](=O)[O-])c1,-2%[1.06 µM],112%[activator]
Cc1cc2c(cc1C)C(c1cc3c(cc1Br)OCO3)CC(=O)N2 (stereo not given),-5%,-3%
CCN(CC)Cc1nc2c(c(=O)[nH]1)C(CC)(CC)Cc1ccccc1-2,-1%,-2%
Cc1oc(-c2ccccc2)nc1CC(=O)Nc1ccc(F)cc1F,-15%,-7%
CC(C)CC(=O)N1c2nc(C(C)C)nn2C2(CCCCC2)[C@@H]2CCCC[C@@H]21,-12%,-17%
CNS(=O)(=O)c1ccc(C)c(C(=O)N2CCCC(c3nc4ccccc4[nH]3)C2)c1 (stereo not given),2%,4%
Cc1ccsc1C=Nc1ccc(Cc2ccc(N=Cc3sccc3C)cc2)cc1,20%,83%[activator]
COc1cc(OC)cc(C(=O)Nc2ccc3c(c2)n(C)c(=O)c(=O)n3C)c1,-8%,-8%
COc1cccc(NC(=O)c2ccc3nc(CCc4ccccc4)oc3c2)c1,-12%,39%[activator]
O=C(c1nc(-c2cccc3[nH]ccc23)no1)N1CCCCC1,187%[activator],214%[activator]
COc1cccc(C(=O)Nc2cccc(-c3nncn3C)c2)c1,-8%,0%
Cc1ccnc(NC(=O)COc2c(C)[nH]ccc2=O)c1,-1%,26%
Cc1nc2ccc(S(=O)(=O)N(CC(=O)Nc3cccc(C)c3C)Cc3ccccc3)cc2s1,14%,-7%
# The results go on.
SMILES,2A Renilla,StopGo FLuc
CC(C)(C)C(=O)N1CCN(CCNc2cc(=O)oc3ccccc23)CC1,-11%,0%
Nc1nccnc1C(=O)NCCSC1CCCC1,14%,0%
Cc1ccc(S(=O)(=O)N2CCC3(CC2)N=C(c2cccs2)C(=O)N3)cc1,-14%,-15%
c1ccc(OCCN2CCC(c3nc4ccccc4s3)CC2)cc1,6%,74%[activator]
CC(Sc1nc(=O)cc(N)n1CCc1ccccc1)C(=O)Nc1cccc(Cl)c1 (stereo not given),-8%,-4%
Cc1ccc(-n2ncc3c(NCCCN4CCOCC4)ncnc32)cc1,-6%,71%[activator]
Cc1ccc(C)c(NC(=O)C(Cc2ccccc2)n2cccc2)c1 (stereo not given),10%,-1%
Cc1ccc(CNC(=O)CSc2nc3ccsc3c(=O)n2-c2ccc(C(=O)O)cc2)cc1,-3%,-17%
CC(C)[C@H](NC(=O)c1ccccc1F)C(=O)Nc1cccc(S(=O)(=O)N2CCCCC2)c1,43%[activator],-2%
CCCCN(C)S(=O)(=O)c1ccc(NC2=NS(=O)(=O)c3ccccc32)cc1,165%[activator],-10%
C#CCSc1nc2sc3c(c2c(=O)n1Cc1ccccc1)CCCC3,-14%,-12%
COc1ccc(C)cc1CNCc1ccco1,-9%[1.06 µM],0%
Clc1ccc(-n2c(Cc3ccccc3)nnc2SCc2nc(-c3cccs3)no2)cc1,-1%,-15%
CCCCc1c(C)[nH]n(-c2nc(C)c(C(=O)Nc3ccccc3)s2)c1=O,-1%,24%
O=C(Nc1ccc(-c2nc3ccccc3s2)cc1)C1CCN(C(=O)c2ccco2)CC1,-7%,80%[activator]
COc1ccc(-c2nnc3n2N(C(C)=O)C(c2ccc(OC(F)F)cc2)=C(C(C)=O)S3)cc1,-5%,-1%
COc1ccccc1/C=C/c1nc(C#N)c(NCc2ccccc2)o1,45%&24%[activator],147%&100%[activator]
Cc1cccc(-c2nc(CCN(C)S(=O)(=O)c3cccc4nsnc34)no2)c1,0%,15%
O=c1[nH]c(=O)n(-c2ccccc2)c2c1C(C(F)(F)F)(C(F)(F)F)N=C(c1ccncc1)N2,6%,12%
Cc1nn(CC(=O)NC(C)c2ccccc2)c(=O)c2ccccc12 (stereo not given),-8%,-4%
COc1ccc(S(=O)(=O)N(Cc2nc(-c3ccc(Cl)cc3)no2)C2CCCCC2)cc1,-10%,-6%
CC(NC(=O)Cn1nc(-c2ccc(F)cc2)oc1=O)c1ccc(Br)cc1 (stereo not given),10%,2%
COC(=O)C1C(=O)CC(C)(O)C(C(=O)OC)C1c1cccc(Br)c1 (stereo not given),4%,4%
CN(C)C(=O)c1ccc(NC(=O)CCc2ccco2)cc1,-3%,58%[activator]
CCCOc1ccc(-c2nonc2NC(=O)c2oc3ccc(C)cc3c2C)cc1OCCC,-7%,-5%
Cn1c(=O)c2c(ncn2CC(O)COc2cccc3ccccc23)n(C)c1=O (stereo not given),u,u
COc1ccccc1NC(=O)Nc1nnc(CC(=O)NCc2ccccc2)s1,16%,19%
Cc1cc(C)c2c(-n3cccc3)c(C(=O)NCCc3ccccc3)sc2n1,-15%,-12%
Cc1cc(F)ccc1NC(=O)Cn1cc(S(=O)(=O)NC(C)C)c(S(=O)(=O)NC(C)C)c1,u,u
CN(C)C(=O)c1ccc(NCC(=O)N2N=C(c3cc4ccccc4o3)CC2c2ccco2)cc1 (stereo not given),21%,91%[activator]
COc1ccc(OC)c(NS(=O)(=O)c2ccc(N3CCCCS3(=O)=O)cc2)c1,-9%,-21%
CCC(=O)Nc1c(C(=O)N2CCN(c3ccccc3F)CC2)oc2ccccc12,315%[activator],14%
CC(C)CSc1nc2c(c(=O)[nH]c(=O)n2C)n1CCCc1ccccc1,7%,17%
CN(C)S(=O)(=O)c1ccc(N2CCCC2)c(C(=O)OCC(=O)NC2(C#N)CCCCC2)c1,121%[activator],1%
CNC(=O)NC(=O)CN(Cc1ccc(C#N)cc1)Cc1cccc(F)c1,3%,-4%
CCN(CC)c1ccc(/C=N/c2sc(C)c(C)c2C#N)cc1,-5%,19%
CC(C)OCCCn1c(=O)c2ccccc2n2c(-c3ccc(F)c(F)c3)nnc12,27%,-4%
CCCc1c(C)nc2ccc(C)cc2c1SCC(=O)O,-3%,-4%
COc1ccccc1CNC(=O)c1cnc(N2CCCC2)nc1C,6%,1%
COc1cccc(-c2nc(-c3ccc(F)cc3)cs2)c1,-6%[1.06 µM],12%
CC(Sc1nc(-c2ccco2)nc2ccccc12)C(=O)N(C)C (stereo not given),0%,8%
Cc1ccc(NC(=O)CCc2c(C)nc3c(-c4ccc(F)cc4)c(C)nn3c2C)cc1F,-6%,-11%
COc1ccc(NC(=O)CSCc2ccc(F)cc2Cl)cc1,34%[activator],129%[activator]
CCn1c(CNC(=O)C23CC4CC(CC(C4)C2)C3)nnc1SCC(=O)Nc1ccc(OC)cc1,12%,6%
CCCN1C(=O)C(O)(CC(=O)c2ccc3c(c2)OCO3)c2ccccc21 (stereo not given),6%,-9%
NC(=O)c1ccc(CNC(=O)c2nccnc2N)cc1,2%,-5%
COc1cccc(NC(=O)CSc2nc3ccc(NC(=O)c4cccs4)cc3s2)c1,u,22%
CCC(=O)N1CCCc2cc(S(=O)(=O)N3CCC(C(=O)NC4CCCCC4)CC3)ccc21,26%,1%
Cc1nn(-c2ccccc2)c2c1N(CC(=O)N1CCN(c3ccc(F)cc3)CC1)C(=O)CS2,-11%,-19%
Cc1ccc2[nH]c(=O)c(CN(Cc3cccnc3)C(=O)c3cccnc3)cc2c1,-3%,1%
CCc1ccc2oc(C(=O)NCc3ccncc3)cc(=O)c2c1,-4%,9%
CC1CCc2c(sc(NC(=O)CCCOc3ccccc3)c2C(N)=O)C1 (stereo not given),0%,3%
CCOC(=O)c1c(Nc2cccc(O)c2)nnc(-c2ccccc2)c1-c1ccccc1,0%,0%
COC(=O)c1ccc(NS(=O)(=O)c2c(C)cc(C)cc2C)cc1,161%[activator],-4%
